Sa RN4220 lethal – growth inhibition of S. aureus RN4220, primary screen, OD600; 16 h; inhibition, % (test concentration not listed); 330,000 tested, 0.33% active;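 active = z-score of -3 or lower and OD600 up to 0.18 on both plates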;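 also: plate controls were untreated cells for no effect and reference antibiotic for full effect; stock transfer was 100 nL into about 80 µL; one replicate is shown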
PrP 5UTR inh – inhibition of PrP 5' UTR reporter expression | cell-based PrP 5' UTR mRNA reporter, plate reader | inhibition, % (concentration not given with the values) | 340,000 tested, 0.35% active | AID 488862, 2010;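 active = every replicate at 50% or more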;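 also: 0 = median of the neutral control wells; tested in H4 reporter cells; numbers are from one replicate; inactives centre near -14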
BJeLR lethal – MLPCN primary cell-based screen for lethality selective to Ras in HRASV12 cells; BJeLR (HRASV12) viability, CellTiter-Glo ATP luminescence, 48 h; reference of the scale not given here; inhibition, % (no concentration beside the values); 300,000 tested, 0.17% active;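 active = replicate mean above 50%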;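 also: 50 nL library stock added to about 25 µL; numbers are from one replicate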
Sa ugtP lethal – growth inhibition of ugtP-null S. aureus, primary screen, RN4220 ugtP deletion, OD600. growth inhibition, % (test concentration not listed). AID 1259309, 2017. 16 h; some inactives read as strong as hits. 330,000 tested, 0.54% active;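 active = z-score under -3 and OD600 up to 0.15 on both plates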;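 also: plate controls were untreated wells for no effect and antibiotic for full effect; wells of about 80 µL received 100 nL stock; the first replicate is given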
Mtb hypoxia inh – PubChem AID 1159583; M. tuberculosis hypoxia-regulated fluorescent reporter, fluorescence; fluorescence inhibition, % (no concentration beside the values); 300,000 tested, 0.1% active;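 active = 35 to 45% if threefold the growth effect, above 45% if 1.5-fold the growth effect; inactive = the rest, general growth blockers included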;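 also: wells of about 50 µL received 100 nL stock; 0% = vehicle wells and 100% = reference inhibitor wells; whole bacteria with a GFP reporter of the hypoxia response; strong numbers were not always called active; many hits fall short of the cut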
Bead autofluor – counter-screen for toxin protease inhibitors: compound fluorescence; compound autofluorescence counterscreen, microsphere flow cytometry; active compounds read high; fluorescence intensity (concentration not given with the values); 360,000 tested, 3.1% active; AID 624483;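 active = at least 3 SD above the mean of all compounds, about 16000 in these data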;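 also: 100 nL of 1 mM stock went into each well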
Mtb hypoxia inh growth – recorded beside Mtb hypoxia inh, whose call it bears; growth inhibition, %; measured here: M. tuberculosis growth (absorbance);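 0% = vehicle and 100% = reference antibiotic; read after six days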
Numbers without * were called inactive; · = no result given; & = joins results of further samples.

canonical_smiles	BJeLR lethal	Sa ugtP lethal	Sa RN4220 lethal	Mtb hypoxia inh	Mtb hypoxia inh growth	Bead autofluor	PrP 5UTR inh
COc1cccc(CNC(=O)C2CCN(C(=O)N(C)C)CC2)c1	-8	5	4.4	5	0	7067	1
S=C(NC1CCCCC1)N1CCn2cccc2C1c1cccnc1 (configuration not stated)	-14	9	3.3	5	6	4349	-10
COc1ccc(NC(=O)c2ccc3[nH]c(C)c(C)c3c2)c(OC)c1	0	13	-0.8	8	10	3501	-17
O=C(CCc1nnc(C2(c3ccc(Cl)cc3)CCC2)o1)N1CCCC(O)C1 (configuration not stated)	0	1	2.0	2	-2	5659	-17
Cc1ccccc1N1C(=O)CC(N2CCN(C(=O)c3ccco3)CC2)C1=O (configuration not stated)	-8	2	3.3	14	6	4884	-27
COC(=O)c1ccc(C(=O)OC)c(NC(=S)N2CCCC(C)C2)c1 (configuration not stated)	-3	11	0.3	7	17	2411	-7
C/C(CC(=O)Nc1ccc(N(C)C)cc1)=N\NC(=O)c1ccc(Cl)cc1	-7	·	·	·	·	3686	-11
COc1cc(NC(=O)Cc2nn(C)c(=O)c3ccccc23)cc(OC)c1	4	1	1.3	·	·	4549	9
O=C(Nc1cccc(-n2cnnn2)c1)c1cc2ccccc2o1	4	-2	4.7	2	0	6015	-11
Cc1nonc1CN(C)C(=O)c1cc(COc2ccc(F)cc2Cl)on1	10	-8	1.0	3	-1	3959	-5
N#Cc1nc(-c2cccc3ccccc23)oc1N	·	28	13	3	1	4337	0
C=CCn1c(CCCOc2ccc(Cl)cc2Cl)n[nH]c1=S	4	-8	-3.3	-1	13	2144	-12
COC(=O)c1ccc(CSc2nc(C)nc3c2c(=O)n(C)c(=O)n3C)o1	-7	-7	2.7	1	12	6452	-23
CN(C(=O)CCc1ccccc1F)C1CCCN(Cc2ccccc2F)C1 (configuration not stated)	-3	6	2.5	7	7	3826	-7
CC(=O)Nc1ccc(S(=O)(=O)NNC(=S)NCc2ccco2)cc1	4	-2	0.9	2	14	5779	1

canonical_smiles	BJeLR lethal	Sa ugtP lethal	Sa RN4220 lethal	Mtb hypoxia inh	Mtb hypoxia inh growth	Bead autofluor	PrP 5UTR inh
Cc1cc2oc(C(=O)NCc3ccccc3)cc(=O)c2cc1C	1	4	3.8	-1	-1	3213	-4
CC1CCc2c(sc(NC(=O)c3cccs3)c2C(=O)O)C1 (configuration not stated)	2	5	6.2	0	0	3901	-34
Cc1csc(N2CCCC2=O)n1	-8	1	2.7	5	-2	2218	-11
CC(C)Oc1ccc(C2NC(=O)c3ccccc3O2)cc1 (configuration not stated)	-14	7	1.8	5	3	2714	-3
CC(C(=O)NC1CC(C)(C)NC(C)(C)C1)c1ccc([N+](=O)[O-])cc1 (configuration not stated)	-14	6	4.7	6	0	2012	-23
CCOc1ccccc1NC(=O)CSc1nc(=O)n(Cc2ccccn2)c2c1CCC2	4	2	0.2	3	5	·	-6
COc1ccc(C)cc1S(=O)(=O)NCC(c1ccc2c(c1)OCO2)N1CCOCC1 (configuration not stated)	-9	5	6.2	-10	-5	·	-6
N#Cc1c(-c2ccc(F)cc2)cc(-c2cccs2)nc1SCC(=O)O	-1	22	15	-3	12	3546	6
COc1ccc(NC(=O)CC2SC(=N)N(c3ccccc3)C2=O)c(OC)c1 (configuration not stated)	-21	4	3.6	4	9	4503	-12
CCOc1ccccc1NC(=O)Nc1ccc(Br)cc1C	-4	8	-0.4	11	11	3306	-24
Cc1cc(O)cc2c1C1CCC3(C)C(=O)CCC3C1C=C2 (configuration not stated)	·	0	13	4	9	3928	-12
O=C(C=Cc1cccc([N+](=O)[O-])c1)N1CCN(C(=O)c2ccco2)CC1	·	-10	0.3	-8	-2	·	·
COc1ccc(NC(=O)Cc2c(F)c(F)c(F)c(F)c2F)cc1OC	3	0	4.5	4	7	4345	-21
Cc1nc(N(C)Cc2ccccc2)c2c(C)c(C)sc2n1	-2	21	1.2	-4	2	5162	-21
Cc1ccc(NP(=O)(Oc2ccccc2F)Oc2ccccc2F)cc1	9	-60	5.6	6	5	10607	·

Already shown: entries from further up.
canonical_smiles	BJeLR lethal	Sa ugtP lethal	Sa RN4220 lethal	Mtb hypoxia inh	Mtb hypoxia inh growth	Bead autofluor	PrP 5UTR inh
CCOc1ccccc1NC(=O)Nc1ccc(Br)cc1C	-4	8	-0.4	11	11	3306	-24
Cc1cc(O)cc2c1C1CCC3(C)C(=O)CCC3C1C=C2 (configuration not stated)	·	0	13	4	9	3928	-12
O=C(C=Cc1cccc([N+](=O)[O-])c1)N1CCN(C(=O)c2ccco2)CC1	·	-10	0.3	-8	-2	·	·
COc1ccc(NC(=O)Cc2c(F)c(F)c(F)c(F)c2F)cc1OC	3	0	4.5	4	7	4345	-21
Cc1nc(N(C)Cc2ccccc2)c2c(C)c(C)sc2n1	-2	21	1.2	-4	2	5162	-21
Cc1ccc(NP(=O)(Oc2ccccc2F)Oc2ccccc2F)cc1	9	-60	5.6	6	5	10607	·

Carrying on.
canonical_smiles	BJeLR lethal	Sa ugtP lethal	Sa RN4220 lethal	Mtb hypoxia inh	Mtb hypoxia inh growth	Bead autofluor	PrP 5UTR inh
CCCCCNC(=O)c1ccccc1SC	13	0	2.7	22	23	16772*	-10
ON=Cc1cccn1-c1ccccc1	14	2	0.8	1	2	8342	-18
CC(=O)NC(Cc1ccc(F)cc1)C(=O)N1CCN(C(=O)NCc2ccccc2)CC1 (configuration not stated)	6	9	0.6	2	-7	20125*	-23
N#Cc1ccccc1S(=O)(=O)N1CCN(C(=O)CCNS(=O)(=O)c2ccc(Cl)cc2)CC1	·	0	0.4	1	2	3165	-14
Clc1ncc(Cn2cccn2)s1	3	-1	1.5	6	2	4117	-30
COc1ccc(C(CNC(=O)c2cccc(S(=O)(=O)N3CCCC3)c2)N2CCCC2)cc1 (configuration not stated)	·	7	-3.2	-1	8	26904*	-20
COc1ccc(-c2cc(C)no2)cc1S(=O)(=O)N1CCOc2ccccc21	4	-11	0.8	-11	0	5589	8
CC(=NO)c1ccc2ccc3ccccc3c2c1	·	22	0.5	-1	2	·	·
c1ccc(C2OCC3(CO2)COC(c2ccccc2)OC3)cc1 (configuration not stated)	-14	-1	1.8	2	1	9461	-26
OCC1(CCc2ccccc2)CCCN(CCCc2ccccc2)C1 (configuration not stated)	-4	6	1.1	11	7	·	-20
Cc1cc(=O)[nH]c(Nc2ccccc2C)n1	-16	15	2.7	6	6	3573	-25
COCCNC(=O)c1ccccc1NC(=O)c1cc(OC)cc(OC)c1	-1	4	2.0	7	7	2523	-7
COc1ccccc1C=NNC(=O)CN(C1=NS(=O)(=O)c2ccccc21)c1ccccc1	·	2	5.5	-1	9	·	·
CNC(=O)COC(=O)Cc1ccc(Cl)cc1	-3	6	1.1	5	6	2631	-14
COc1ccc(OC)c(NC(=O)Cn2c(=O)n(CC(=O)NCc3ccco3)c(=O)c3ccccc32)c1	-5	7	3.3	1	-8	3151	-7

canonical_smiles	BJeLR lethal	Sa ugtP lethal	Sa RN4220 lethal	Mtb hypoxia inh	Mtb hypoxia inh growth	Bead autofluor	PrP 5UTR inh
CCOC1OC(C(=O)Nc2ccccc2)=CC(c2ccc(Br)cc2)C1CCCO (configuration not stated)	·	-3&-14	-5.8&-0.4	3&3	-2&15	·	·
CCOC(=O)C1=C(c2ccccc2)NC(=O)NC1c1cc(OC)c(OC)c(OC)c1 (configuration not stated)	·	9	7.0	14	9	3662	-24
Cc1nc(Cl)sc1C(=O)Nc1cccc2ccccc12	-2	-2	6.3	0	-1	2557	-8
CCOCCCN(C(=O)CNC(=O)c1ccco1)C(C(=O)NC1CCCC1)c1cccc(OC)c1 (configuration not stated)	3	4	1.4	12	11	3668	-13
CCCCC(=O)Nc1nnc(-c2ccc(OC)cc2)s1	0	80	-11	14	8	2851	-34
COc1ccc(-c2cc(C(=O)NN=C(C)c3cccnc3)c3cc(C)ccc3n2)cc1OC	·	4	0.1	-2	0	·	·
COc1ccc(Cc2nc3ccc(S(=O)(=O)N4CCOCC4)cc3[nH]2)cc1	1	2	1.9	2	2	8207	-11
c1ccc(Oc2ncnc3sccc23)cc1	-3	-7	1.0	-5	-2	3990	-16
CCOc1cc(C(=O)NCC2CCCO2)cc(OCC)c1OCC (configuration not stated)	-9	0	1.8	1	3	9835	-15
CCCCNc1ccc(C(CC(N)=O)NC(=O)c2ccccc2)cc1[N+](=O)[O-] (configuration not stated)	7	3	4.1	3	-6	4278	-16
O=C(C1CCCN(S(=O)(=O)c2cc(Cl)ccc2Cl)C1)N1CCCCCC1 (configuration not stated)	-6	-1	0.3	8	5	6465	-5
CC(C)OCCCNc1ncc2c(n1)CC(c1ccc(N(C)C)cc1)CC2=O (configuration not stated)	9	-8	1.8	7	13	2716	1
Cc1ccc(C23OCCN2CCn2nc4ccccc4c23)cc1 (configuration not stated)	·	-12	0.8	3	4	3407	-16
OC1(c2ccc(F)cc2)CCN(Cc2ccccc2)C1 (configuration not stated)	-5	2	3.9	11	4	12040	-19
COc1ccc(C(=O)c2sc(NC(C)C)nc2N)cc1OC	·	2	0.1	·	·	2691	1

Whole records from above:
`O=C(C=Cc1cccc([N+](=O)[O-])c1)N1CCN(C(=O)c2ccco2)CC1` is entered as BJeLR lethal = ·; Sa ugtP lethal = -10; Sa RN4220 lethal = 0.3; Mtb hypoxia inh = -8; Mtb hypoxia inh growth = -2; Bead autofluor = ·; PrP 5UTR inh = ·
`C=CCn1c(CCCOc2ccc(Cl)cc2Cl)n[nH]c1=S` is entered as BJeLR lethal = 4; Sa ugtP lethal = -8; Sa RN4220 lethal = -3.3; Mtb hypoxia inh = -1; Mtb hypoxia inh growth = 13; Bead autofluor = 2144; PrP 5UTR inh = -12
`Cc1ccccc1N1C(=O)CC(N2CCN(C(=O)c3ccco3)CC2)C1=O` (configuration not stated) is entered as BJeLR lethal = -8; Sa ugtP lethal = 2; Sa RN4220 lethal = 3.3; Mtb hypoxia inh = 14; Mtb hypoxia inh growth = 6; Bead autofluor = 4884; PrP 5UTR inh = -27

(further entries)
canonical_smiles	BJeLR lethal	Sa ugtP lethal	Sa RN4220 lethal	Mtb hypoxia inh	Mtb hypoxia inh growth	Bead autofluor	PrP 5UTR inh
Cc1ccc(OCCC(=O)OCC(=O)NCCc2ccc(Cl)cc2)cc1	-14	13	2.4	8	7	6169	-24
O=C(O)C(=O)/C(=C\c1ccsc1)c1ccc2ccccc2n1	0	-1	1.6	-6	-4	4403	-107
O=C(CCS(=O)(=O)c1ccccc1)N(CCCN1CCOCC1)c1nc2ccccc2s1	11	10	3.7	8	0	6467	-30
Cc1ccc(NC(=O)CNCc2ccc(Cl)cc2Cl)cc1S(=O)(=O)N(C)C	7	-13	10	3	8	6069	-3
COc1ccc(-c2nnc(-c3cc(OC)c(OC)c(OC)c3)o2)cc1OC	1	-3	-7.8	6	5	2548	-3
Cc1cc(NC(=O)c2cc(-c3ccc(C)c(C)c3)nc3ccccc23)no1	-1	15	0.5	10	4	11173	-27
O=C(CN1CCCCC1)c1ccccc1Cl	-5	4	2.2	-4	2	8991	-16
COc1ccccc1N1CCN(N=Cc2ccc(O)c(O)c2)CC1	·	4	3.4	12	5	·	·
CNc1nc(N)c(C(=O)Nc2cc(C)on2)s1	1	6	7.6	-5	6	5059	-34
CCN(Cc1ccccc1)C(=O)COC(=O)c1cc(=O)[nH]c2ccccc12	6	4	3.2	5	9	3167	6
COc1ccc(S(=O)(=O)N2CCOC2CNC(=O)C(=O)NCc2cccnc2)cc1OC (configuration not stated)	-13	-2	3.7	7	6	4332	-9
CC(=O)Nc1cccc(NC(=O)c2ccc(C(=O)Nc3cccc(NC(C)=O)c3)nc2)c1	3	6	-0.4	8	1	2103	-4
CNC(=O)CSc1nnnn1-c1cc(C)ccc1C	-1	-4	-0.2	·	·	4333	-22
O=C(Nc1ccc(Cl)c(Cl)c1)Nc1ccc(Br)cc1F	0	99*	100*	3	4	2511	-17
CCCCNc1nc(-c2ccccc2)c(C(=O)OCC)cc1C#N	6	57	0.1	·	·	2580	11
O=C1NC2(CCCCC2)N=C1c1ccc(F)cc1	-8	-2	-0.8	-1	-2	22118*	0

Some values from above:
In Sa RN4220 lethal, O=C(Nc1ccc(Cl)c(Cl)c1)Nc1ccc(Br)cc1F has the entry 100*
In Mtb hypoxia inh, COc1ccccc1N1CCN(N=Cc2ccc(O)c(O)c2)CC1 has the entry 12
In Sa RN4220 lethal, CNc1nc(N)c(C(=O)Nc2cc(C)on2)s1 has the entry 7.6
